# From PubChem BioAssay
# KCNQ2 enhance: enhances the rat KCNQ2 potassium channel. O88943. CHO-K1 KCNQ2, FluxOR thallium flux fluorescence; active compounds read high. B-score at 10 µM. 310,000 compounds, 0.54% hits;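 active means fluorescence ratio B-score at least 3 SD of library B-scores, with initial fluorescence B-score within 3 SD, cut at about 5.3 in these data; same plate scores as AID 2156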;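 further: B-score of peak minus minimum over baseline fluorescence ratio after K+ and Tl+ stimulus; positive B-score means potentiation of KCNQ2 with more thallium influx and brighter signal; only the inactives scoring about 0 or higher are listed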
# Target sequence (O88943 whole entry, looked up): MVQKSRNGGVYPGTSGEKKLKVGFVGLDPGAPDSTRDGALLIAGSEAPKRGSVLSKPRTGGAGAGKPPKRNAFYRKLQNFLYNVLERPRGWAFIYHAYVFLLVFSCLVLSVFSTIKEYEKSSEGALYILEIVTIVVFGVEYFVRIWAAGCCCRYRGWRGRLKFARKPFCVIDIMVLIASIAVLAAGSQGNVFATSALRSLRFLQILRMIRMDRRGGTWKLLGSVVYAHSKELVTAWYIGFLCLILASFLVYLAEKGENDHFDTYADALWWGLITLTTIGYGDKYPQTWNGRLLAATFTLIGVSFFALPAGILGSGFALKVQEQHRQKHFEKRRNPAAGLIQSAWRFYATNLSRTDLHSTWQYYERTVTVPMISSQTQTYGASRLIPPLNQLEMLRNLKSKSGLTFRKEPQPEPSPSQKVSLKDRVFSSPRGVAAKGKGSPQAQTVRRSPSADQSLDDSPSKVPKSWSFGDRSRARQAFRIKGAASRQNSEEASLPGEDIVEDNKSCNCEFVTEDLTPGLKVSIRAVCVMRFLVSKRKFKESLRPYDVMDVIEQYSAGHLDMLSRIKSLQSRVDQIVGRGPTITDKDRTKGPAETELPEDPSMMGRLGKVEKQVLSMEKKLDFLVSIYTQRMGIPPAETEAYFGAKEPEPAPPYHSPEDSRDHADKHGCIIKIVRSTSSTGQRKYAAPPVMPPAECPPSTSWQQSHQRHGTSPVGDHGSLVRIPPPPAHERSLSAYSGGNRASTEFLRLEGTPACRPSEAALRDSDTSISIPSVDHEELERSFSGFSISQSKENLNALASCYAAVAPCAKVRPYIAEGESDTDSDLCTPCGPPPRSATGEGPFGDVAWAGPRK
# KCNQ2 enhance baseline: also measured in KCNQ2 enhance; calls as there; B-score; compound at 10 µM; measured here: initial fluorescence intensity artifact check;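 brightness before thallium and not channel activity; 0 = typical well and far values either way flag optical interference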
# * = called active by the depositor. A portion of the library, so the mix of outcomes need not match the whole.
canonical_smiles	KCNQ2 enhance	KCNQ2 enhance baseline
Cc1c(Cl)cccc1NC(=O)CCC(=O)NNC(=O)c1ccccc1	0.34	0.49
CCN1C(=O)/C(=C/c2cccs2)SC1=Nc1ccc(OC)cc1	1	0.77
Cc1ccc(N2C(=O)NC(NC(=O)C3CC3)(C(F)(F)F)C2=O)cc1 (stereo unspecified)	0.16	2.3
CCc1nc(SCC(=O)Nc2cccc(C(F)(F)F)c2)c2c(=O)n(C)c(=O)n(C)c2n1	1.6	0.2
CCOC(=O)N(Cc1ccccc1)Cc1ccc(C(=O)N[C@@H](Cc2ccccc2)C(=O)O)cc1	0.68	0.04
CSc1ncccc1C(=O)N1CCN(C(=O)c2ccccc2)CC1	1.8	-0.08
O=[N+]([O-])c1cccc2c(N3CCOCC3)ccnc12	0.33	-0.08
Cc1ccc(S(=O)(=O)n2cnc3ccccc32)c(C)c1	1.2	0.26
COc1ccc(N/C=C(\C#N)c2ccc(OCCCF)cc2)cc1	0.46	-1.4
COc1ccc(C(=O)NCCCCCC(=O)N/N=C/c2ccco2)cc1OC	0.72	-1
O=C1C2C3CC(C2C(=O)N1c1cccc(Cl)c1)[C@H](O)C3O (stereo partly specified)	0.44	0.47
COc1ccc(CN(CC(=O)NCc2ccccc2)C(=O)CCC(=O)Nc2cc(C)ccn2)cc1	0.88	-0.67
CC(C)n1cc(CNC(=O)C2CCC(=O)N(Cc3ccccc3F)C2)cn1 (stereo unspecified)	2	-0.09
NC(=O)C1CCN(c2ncc(C(F)(F)F)cc2Cl)CC1	0.03	-0.2
COc1ccc(C(=O)NC2CC2)cc1OC1CCN(Cc2ccc(Cl)cc2)CC1	2.5	-1.1
COc1ccc(NC(=O)CN2C(=O)c3ccccc3Sc3ccc(C(=O)N4CCOCC4)cc32)c(OC)c1	0.5	0.08
Cc1nnsc1C(=O)N/N=C/c1ccccc1Cl	1.7	-2.5
O=C1SCCc2c1n(Cc1ccccc1)c1ccccc21	1.3	1.1
CCCOc1ccc(C2=CSC3=NCCN23)cc1	0.03	1.9
CC(OC(=O)CCOc1ccccc1)C(=O)NC1CC1 (stereo unspecified)	0.24	1.2
Cc1nnc(N2CCN(Cc3ccccc3)CC2)[nH]c1=O	0.98	-0.03
Cc1ccc(C(=O)N2CCN(S(=O)(=O)c3ccccc3)CC2)cc1	1.9	0.95
CC(C)(C)N1CC(C(=O)Nc2ccc(C#N)cc2)CC1=O (stereo unspecified)	0.89	0.41
NC(=O)c1ccc[n+](CC(=O)c2ccc(Br)cc2)c1	0.39	-1.4
Cc1onc(-c2ccccc2)c1C(=O)Nc1c(C)n(C)n(-c2ccccc2)c1=O	0.02	-0.66
C[C@]1(C(=O)O)C=C[C@@H](Cc2ccccc2)N1C(=O)c1ccccc1	0.89	-0.04
COc1cccc(C2CC(C(F)(F)F)n3nc(C(=O)Nc4c(C)n(C)n(-c5ccccc5)c4=O)cc3N2)c1 (stereo unspecified)	0.44	-0.51
Cc1ccnc(SCc2cc(=O)c(OC(=O)c3ccccc3)co2)n1	0.43	-0.01
CC(=O)N(C)c1ccc(NCc2cc(=O)oc3cc(C)c(O)cc23)cc1	0.14	-0.18
COc1cc(NC(=O)CN2CCN(C(=O)C3CCCO3)CC2)c(OC)cc1Cl (stereo unspecified)	1.8	-0.87
c1cc2c(cc1Oc1nc(N3CCOCC3)nc(N3CCOCC3)n1)OCO2	0.05	-0.77
Cc1nc2ccccc2n1C(=O)N1CCOCC1	1.4	0.88
CN1c2ccccc2C(=O)C(=C2SCCCS2)S1(=O)=O	0.02	-0.15
Cc1ccccc1N/C(SCc1cccc(Br)c1)=C(/C#N)C(N)=O	0.24	-0.44
CC1CC(=O)N(c2ccc(C(C)C)cc2)C(=O)C1	0.21	-1.7
CN1CCN(CC(=O)C23CC4CC(CC(C4)C2)C3)CC1	0.02	-0.94
CN(CC(=O)Nc1ccc(N2CCOCC2)cc1)C(=O)C12CC3CC(CC(C3)C1)C2	0.84	-2.7
CCOc1cc(/C=N/NC(=O)c2ccncc2)ccc1OC(=O)c1ccccc1	0.65	0.07
COc1ccc(CCn2c(=N)c(C(=O)NCC3CCCO3)cc3c(=O)n4ccccc4nc32)cc1OC (stereo unspecified)	1.7	-2.8
Cc1cc(C)nc(SCNC(=O)c2ccc(F)cc2)n1	1.4	-0.49
COc1cccc(CNC(=O)c2ccc(C)c(NC3=NC4CS(=O)(=O)CC4S3)c2)c1 (stereo unspecified)	0.07	-0.21
Cc1[nH]n(C)c(=O)c1C(=O)c1c(-c2ccccc2Cl)noc1C	0.9	0.04
COc1nc(-c2ccncc2)nc2ccccc12	0.35	-0.17
CCOc1cc(/C=C2\N=C(SCC)SC2=O)cc([N+](=O)[O-])c1OC(C)=O	1.4	-2.2
O=C(O)C(c1ccccc1)c1ccccc1	1	2.9
CCn1c(SCC(N)=O)nnc1-c1cc2c(C)nn(-c3ccccc3)c2s1	0.06	0.09
CCc1nnc2n1N=C(c1ccc(OC)cc1)CS2	0.55	-0.06
COc1cccc(/C=N/NC(=O)NC23CC4CC(CC(C4)C2)C3)c1O	1.2	1.7
O=C(NC1CCCC1)c1cc(-c2ccccc2O)on1	1.4	-1.1
O=C(OCCCN=C1NS(=O)(=O)c2ccccc21)c1ccc([N+](=O)[O-])cc1	1.9	-0.96
CS(=O)(=O)CCC(C(=O)OCC(=O)c1ccc(Cl)cc1)N1C(=O)c2ccccc2C1=O (stereo unspecified)	0.36	-0.6
O=C(NC1CCN(C(=O)Nc2ccc(F)cc2)CC1)c1ccc(F)cc1	0.74	1.7
O=C(NNC(=S)NC1CCCCC1)c1ccc(Cl)s1	1	0.81
O=C1C2C(C(=O)N1/N=C/c1cc([N+](=O)[O-])c(O)cc1O)C1C=CC2C12CC2 (stereo unspecified)	0.72	1.2
CCCNC(=O)Cn1cnc2sc(C(=O)N3CCN(c4ccc(F)cc4)CC3)c(C)c2c1=O	0.37	-1.4
N#CCSc1ncccc1-c1nc2ccccc2[nH]1	1.1	0.66
COc1ccc(C(=O)N(CC(=O)Nc2sc(C)c(C)c2C(N)=O)C2CCCC2)cc1	1.7	-0.22
O=C(c1ccc(Cl)c(S(=O)(=O)N2CCCCCC2)c1)N1CCCCC1	2.8	-1.4
Cc1nc2ccc(NC(=O)COc3ccccc3[N+](=O)[O-])cc2s1	0.67	-0.19
CCOc1cc(CNCc2ccncc2)cc(Cl)c1OC	1.6	-0.54

# Remaining list, next part:
canonical_smiles	KCNQ2 enhance	KCNQ2 enhance baseline
NC(=O)CCCCC(=O)OCCCc1cccs1	0.7	-0.04
O=C1c2ccccc2C(=O)N1CSc1nnnn1-c1ccccc1	1.1	0.68
Cn1cccc1Cc1nnc(SCC(=O)Nc2ccc3c(c2)OCCO3)n1CCc1ccccc1	0.04	-1.3
Cc1ccc(-n2nnnc2-c2cnn(-c3ccc(F)cc3)c2C(F)(F)F)cc1	0.97	-0.42
CC(=O)NCCn1c(SCc2ccccc2F)nc2ccccc2c1=O	0.11	0.73
COc1ccc(NC(=O)C2CCCN(S(=O)(=O)c3cccc4cccnc34)C2)cc1 (stereo unspecified)	0.36	0.14
O=C(Nc1nnc(CCN2CCCCC2)s1)c1ccc(Br)cc1	0.83	-0.07
Cc1ccc2oc(=O)c3cnn(CC(=O)N(CCN(C)C)Cc4ccco4)c3c2c1	0.07	-0.74

# Part of the list above in order of number of heavy atoms, lowest first:
canonical_smiles	KCNQ2 enhance	KCNQ2 enhance baseline
NC(=O)CCCCC(=O)OCCCc1cccs1	0.7	-0.04
N#CCSc1ncccc1-c1nc2ccccc2[nH]1	1.1	0.66
O=C(NC1CCCC1)c1cc(-c2ccccc2O)on1	1.4	-1.1
CCOc1cc(CNCc2ccncc2)cc(Cl)c1OC	1.6	-0.54
O=C(Nc1nnc(CCN2CCCCC2)s1)c1ccc(Br)cc1	0.83	-0.07
O=C1c2ccccc2C(=O)N1CSc1nnnn1-c1ccccc1	1.1	0.68
COc1cccc(/C=N/NC(=O)NC23CC4CC(CC(C4)C2)C3)c1O	1.2	1.7
CC(=O)NCCn1c(SCc2ccccc2F)nc2ccccc2c1=O	0.11	0.73
O=C1C2C(C(=O)N1/N=C/c1cc([N+](=O)[O-])c(O)cc1O)C1C=CC2C12CC2 (stereo unspecified)	0.72	1.2
Cc1ccc(-n2nnnc2-c2cnn(-c3ccc(F)cc3)c2C(F)(F)F)cc1	0.97	-0.42
COc1ccc(NC(=O)C2CCCN(S(=O)(=O)c3cccc4cccnc34)C2)cc1 (stereo unspecified)	0.36	0.14
CS(=O)(=O)CCC(C(=O)OCC(=O)c1ccc(Cl)cc1)N1C(=O)c2ccccc2C1=O (stereo unspecified)	0.36	-0.6
CCCNC(=O)Cn1cnc2sc(C(=O)N3CCN(c4ccc(F)cc4)CC3)c(C)c2c1=O	0.37	-1.4
Cn1cccc1Cc1nnc(SCC(=O)Nc2ccc3c(c2)OCCO3)n1CCc1ccccc1	0.04	-1.3
